Screening results: PubChem BioAssay, ICCB-Longwood Screening Facility, Harvard Medical School
HCMV NEC inh – cytomegalovirus nuclear egress complex inhibition; AID 1918969; actives 0.15% (n = 190,000); HTRF UL50-UL53 interaction, normalized percent inhibition; inhibition, % (no concentration beside the values);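 active = both replicates at 50% or more, plus weaker picks with an unusually low signal ratio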;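 also: stock transfer was 100 nL into about 20 µL; 0% = negative control wells and 100% = wells with untagged competitor protein; inactives centre near -12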
Sa growth 42C – blocks Staphylococcus aureus growth; S. aureus RN4220 growth, OD600, 20 h, 42 °C; hits give low values; relative growth, % (test concentration not listed); actives 0.53% (n = 170,000); AID 720641;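 active = growth at 42 °C up to 50% and 20 or more points under that at 30 °C, or under 10% at both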;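 also: 300 nL library stock went into each well; scaled to the means of positive and negative controls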
GIV-Gai inh – inhibitors of GIV GBA-motif binding to rat Galpha-i3; actives 0.42% (n = 210,000); Galpha-i3/FITC-GIV peptide fluorescence polarization, 90 min; hits give low values; scaled: aluminum fluoride 0%, vehicle 100%; percent of control (FP), % (concentration not given with the values); AID 1224905;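 active = replicate mean at 85% of control or lower, very high polarization wells dropped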;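 also: wells of about 15 µL received 100 nL stock; the first replicate is given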
Target sequence (P08753 whole entry, looked up): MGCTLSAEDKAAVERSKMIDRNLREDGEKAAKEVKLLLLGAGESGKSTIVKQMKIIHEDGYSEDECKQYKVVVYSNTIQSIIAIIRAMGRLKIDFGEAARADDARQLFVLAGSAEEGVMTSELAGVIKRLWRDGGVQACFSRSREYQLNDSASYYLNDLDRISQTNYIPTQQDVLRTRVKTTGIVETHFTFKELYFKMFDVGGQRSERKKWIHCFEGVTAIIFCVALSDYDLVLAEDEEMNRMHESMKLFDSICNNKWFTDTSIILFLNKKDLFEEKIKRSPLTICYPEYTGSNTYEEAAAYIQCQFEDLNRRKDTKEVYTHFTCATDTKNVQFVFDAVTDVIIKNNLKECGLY
Sa growth 42C second temp – also measured in Sa growth 42C; calls as there; relative growth, %; measured here: growth at 30 °C;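 optical density after 20 h as mean of two plates; 100% = untreated growth and lower means inhibition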
* hit, by the source's call; . = no result given; & = joins results of further samples.

SMILES	HCMV NEC inh	Sa growth 42C	Sa growth 42C second temp	GIV-Gai inh
O=C(COC(=O)CCc1c[nH]c(=O)[nH]1)Nc1ccc2ccccc2c1	-46	94	96	101
COc1ccc(C(NC(=O)CSc2nncn2C(C)C)c2ccccc2)cc1 (configuration not stated)	6	100	91	.
ClCc1cccc2c(CCl)cccc12	-29	124	96	.
CCOC(=O)C(C(=O)Nc1cccc(C(F)(F)F)c1)C1CCCCC1 (configuration not stated)	.	69	86	101
O=C(NCCN1CCCC1)c1ccc2c(c1)ncn2C1CCCCC1	7	94	85	102
CC12CC(c3ccccc3O1)C(C(=O)NCc1ccccc1)C(=O)N2 (configuration not stated)	-30	112	91	100
CCOc1c(N2CCCCC2C)c(=O)c1=O (configuration not stated)	-22	.	.	96
CCOC(=O)N1CCN(C(=S)Nc2cc(OC)c(OC)cc2C(=O)OC)CC1	-6	118	108	103
Cc1ccc(NS(=O)(=O)c2c(C(=O)N3CCCCCC3)c(C)n(C)c2C)cc1F	.	111	82	101
CCC1(C)N=C(c2ccccc2)C(=S)N1 (configuration not stated)	-18	91	84	104
O=CNc1ccc(OC(=O)c2cncc(Br)c2)cc1	-2	94	96	.
O=C(/C=C/c1ccco1)N1CC=C(c2ccccc2)CC1	-22	67	86	.
CC1=C(c2ccc(Cl)cc2)S(=O)(=O)N=C1N1CCC(C(=O)NC2CCCC2)CC1	-52	95	87	103
COc1ccc(-c2noc(-c3cn(Cc4ccc(N)cc4)cn3)n2)cc1	-29	.	.	99
O=C(Cc1n[nH]c(=O)c2ccccc12)NCC1CCCO1 (configuration not stated)	-6	95	98	.
COCCCNC(=O)CSc1nc2c(sc3ccccc32)c(=O)n1CCc1ccc(OC)c(OC)c1	.	106	89	107
COc1ccc(Cc2nc(S(=O)(=O)c3ccc(C)cc3)c(NCc3ccccc3)o2)cc1	.	89	88	103
CCOC(=O)CN1C(=O)CSc2ccccc21	10	113	97	103
COc1ccc(N2C(=O)/C(=C\c3ccco3)N=C2SCc2cc(=O)n3ccsc3n2)cc1Cl	-28	89	61	.
COc1ccc(/C=C2/Oc3ccccc3N(CC(=O)NC3CCCc4ccccc43)C2=O)cc1 (configuration not stated)	.	99	87	100
S=c1[nH]nc(-c2cccc(Br)c2)o1	-16	63	32	96
Cc1occc1-c1nnc(SCC(=O)NC2CCCCC2)o1	-24	.	.	101
COc1cc2nc(NC(C)=O)sc(=O)c2cc1OC	-5	95	92	101
CSc1nc2ccc(NC(=O)c3cc(Cl)ccc3[N+](=O)[O-])cc2s1	-39	.	.	111
O=C(CSc1nnc(-c2ccccc2)c(-c2ccccc2)n1)NCCC1=CCCCC1	.	90	98	105
SMILES	HCMV NEC inh	Sa growth 42C	Sa growth 42C second temp	GIV-Gai inh
COC(=O)c1cc(=O)n2[nH]cnc2n1	-12	.	.	103
CCc1nc2ccccc2n1CC(O)COc1c(C)cccc1C (configuration not stated)	-18	.	.	106
CN(C)C(CNC(=O)c1cccc(OC(F)F)c1)c1ccco1 (configuration not stated)	6	105	92	.
O=C1Nc2ccccc2C1c1ncc(C(F)(F)F)cc1Cl (configuration not stated)	-10	.	.	102
NC(=O)NC(=O)Nc1ccc(Cl)cc1	-5	117	98	100
CCOC(=O)c1c(NC(=O)c2cc3nc(-c4ccccc4)cc(C(F)(F)F)n3n2)sc2c1CCC(C)C2 (configuration not stated)	.	89	93	98
Cc1ccc(Cn2nnc3c(=O)[nH]c(C4CCN(C(=O)CC(C)(C)C)CC4)nc32)cc1	-2	15	20	104
CCC(C)NC(=O)c1nn(C)c2c1CCc1sccc1-2 (configuration not stated)	13	.	.	109
COC(=O)c1cc(OC(=O)/C=C/c2ccc(C)o2)cc(C(=O)OC)c1	-26	85	85	.
Cc1cc(NC(=O)C2CCCN(S(=O)(=O)c3cccc4nonc34)C2)ccc1Br (configuration not stated)	-6	103	99	113
CCn1c(NCc2nc3ccccc3n2C)nc2ccccc21	5	88	86	103
CC(=O)Nc1cc(-c2nc3ccccc3s2)ccc1C	-75	101	91	105
Cc1sc2nc(-c3ccccc3O)[nH]c(=O)c2c1C	-9	87	77	.
CCCSc1nnc(/N=C/N(C)C)s1	-10	120	75	106
CCOc1cc(CCn2cnc3c([nH]c4ccc(C)cc43)c2=O)ccc1OC	.	100	89	99
COc1ccc(C2CC(=O)C3=C(C2)Nc2onc(C)c2C3c2ccccc2C)cc1OC (configuration not stated)	-19	.	.	103
Cc1cc2nc3s/c(=C/c4ccc(-c5cc(Cl)c(C)cc5[N+](=O)[O-])o4)c(=O)n3c2cc1C	-4	.	.	105
Cc1oc(-c2ccccc2F)nc1CSCC(=O)NCCc1ccccc1	-11	84	85	110
COc1ccc(S(=O)(=O)c2cn(CC(=O)Nc3cc(C)ccc3C)c3ccccc3c2=O)cc1	-1	108	74	109
COc1cccc(Cc2nc3ccccc3nc2SCC(=O)Nc2cc(OC)ccc2OC)c1	.	79	88	98
Cc1cc(/C=N/n2cnnc2)c(C)n1-c1cccc(I)c1	-10	84	62	98
CC(C)C(=O)NCCSc1c[nH]c2ccccc12	-16&-7	111	78	101
COc1ccc(F)cc1S(=O)(=O)NCCc1c(C)[nH]c2c(Cl)cccc12	.	107	96	103
CCCCC(=O)Oc1cc2c(C(=O)OCC)c(C)n(-c3ccccc3)c2c2ccccc12	-3	.	.	104
Cc1ccc(Cl)cc1N1CCN(S(=O)(=O)c2ccc(-c3cnc(C4CC4)o3)cc2)CC1	.	113	94	99
SMILES	HCMV NEC inh	Sa growth 42C	Sa growth 42C second temp	GIV-Gai inh
O=S1(=O)N=C(N2CCCCCC2)c2ccccc21	7	88	85	99
CCOCCCNC(=O)C(c1ccc(OC)cc1)N(Cc1ccc2c(c1)OCO2)C(=O)c1ccc(NC(C)=O)cc1 (configuration not stated)	-16	99	87	106
Cc1ccc(S(=O)(=O)NCCN=Cc2ccc3c(c2)OCO3)cc1	-15	92	86	95
CCCN1C(=O)c2c(C(=O)NCCC(C)C)ncn2CC1(C)C(=O)NCCC(C)C (configuration not stated)	-15	.	.	107
Cc1nnc(N/N=C/C(C)c2ccccc2)[nH]c1=O (configuration not stated)	7	94	95	105
CCSc1nn(CC(=O)Nc2ccccc2C(=O)OC)c(N)c1S(=O)(=O)c1ccc(C)cc1	-22	.	.	97
Fc1ccc(OCc2nnc3sc(-c4cnccn4)nn23)cc1	4	.	.	100
O=C1CSc2ccc(C(=O)NCC3COc4ccccc4O3)cc2N1 (configuration not stated)	.	82	81	99
CCn1c(SCC(=O)NC(=O)Nc2ccccc2F)nnc1-c1ccccc1	-2	104	95	.
O=C(CSc1cn(CC(=O)N2CCOCC2)c2ccccc12)NCc1ccco1	.	103	85	104
O=C(CCc1nnc2ccc(NCc3ccccc3Cl)nn12)NCC1CCCO1 (configuration not stated)	2	.	.	110
NS(=O)(=O)c1ccc(CCNc2ccccn2)cc1	-24	68	95	.
O=C(CCSc1ccccc1)NC1CCCCC1	-4	105	97	.
CC(=O)N1CCN(CCN=CC2=C(O)CC(c3ccccc3)CC2=O)CC1 (configuration not stated)	.	109	91	99
COc1c(Cl)cc(Cl)cc1/C=C(\C#N)C(N)=O	-36	108	71	103
Cc1cc(C(=O)Oc2ccc(C(=O)c3ccc(F)cc3)cc2)on1	-28	89	94	.
CCc1nn(CCCC(=O)N2CCC(C)CC2)c(=O)c2cc3oc(C)cc3n12	-25	.	.	102
CS(=O)(=O)c1ccc(C2=Nn3c(nnc3-c3cccs3)SC2)cc1	-56	87	67	99
CC(O)(c1ccc(Cl)cc1)C(CN1CCOCC1)c1ccccc1 (configuration not stated)	-15	.	.	98
N#Cc1nc(-c2ccc(COc3ccc(Cl)cc3)o2)oc1N1CCC(C(N)=O)CC1	-36	105	70	100
O=C(C1CCCCC1)N1CCC2(CC1)Nc1ccc(Cl)cc1-n1cccc12	-33	.	.	107
COc1ccc(S(=O)(=O)N2CCc3cc(-c4ccc(C(=O)N5CCOCC5)cc4)ccc32)cc1	-35	.	.	103
Cn1c(=O)c2c(nc(NCc3ccc4c(c3)OCO4)n2Cc2cccc(Br)c2)n(C)c1=O	-17	.	.	105
Cc1ccc2[nH]cc(CCN3CC(C(=O)Nc4nnc(C(C)(C)C)s4)CC3=O)c2c1 (configuration not stated)	-15	.	.	101
COc1cccc(NC(=O)c2nnn(Cc3cccc(C(F)(F)F)c3)c2N)c1	-5	99	89	96
SMILES	HCMV NEC inh	Sa growth 42C	Sa growth 42C second temp	GIV-Gai inh
Cc1ccc2c(CNC3CCCC3)c(C(=O)O)[nH]c2c1	-34	98	88	104
COc1cccc(C2C3=C(CC(C)(C)CC3=O)Nc3ccccc3N2C(C)=O)c1OC (configuration not stated)	-8	94	92	99
Cc1nn(Cc2cccc(C(=O)NN3CCCCC3)c2)c(C)c1Cl	-1	105	90	102
CC(C)C(=O)Nc1ccc(Cl)cc1C(=O)O	-14	100	82	99
Cc1c(C)n(-c2ccccc2)c2ncn(CCC(=O)NCc3ccccc3Cl)c(=O)c12	2	.	.	103
COc1ccc(OCCCn2ccnc2)cc1	-14	84	89	101
O=C1CCCC/C1=N\Nc1ccc(N2CCCCC2)cc1	-67	87	77	99
Cc1nc(-n2[nH]c(C)c(CC(=O)N3CCOCC3)c2=O)sc1C	-20	.	.	101
O=C(NC1CCCC1)C1CCCN(S(=O)(=O)c2cccc3cccnc23)C1 (configuration not stated)	.	83	90	104
CC(NC(=O)C1CCN(C(=O)N2CCOc3ccccc32)CC1)c1ccccc1 (configuration not stated)	-19	120	88	104
CC1=C(c2ccc(C)c(C)c2)S(=O)(=O)N(CC(=O)NCc2ccccc2Cl)C1=O	-24	.	.	99
COc1cc(NC(=O)c2ccc(CSC3CCCCC3)cc2)cc(OC)c1OC	-18	88	94	.
CNC(=O)C1CCN(S(=O)(=O)c2c(C)noc2/C=C/c2cccc(C)c2)CC1	-20	107	81	102
Cc1cc(C)n(/N=C2\CCCc3ccccc32)c(=O)c1C#N	-17	91	85	.
N#Cc1cccc2c1-c1ccccc1C2	-22	93	84	103
CC1CCN(S(=O)(=O)c2nnc(NC(=O)c3cccc(F)c3)s2)CC1	-6	79	24	104
O=C(OCC(=O)N1CCCCC1)c1cc2ccccc2cc1O	-52	98	91	.
N/C(=N\OC(=O)C1CCCCC1)c1ccccc1	-16	90	79	96
CCOC(=O)Cn1cc(C(=O)Nc2ccc(C(=O)OCC)cc2)c(=O)c2ccc(C)nc21	4	.	.	121
CCN(C(=O)COc1ccc(Cl)cc1C)c1ccccc1	-1	98	86	96
Cc1cc(-n2c(C)cc(C(=O)OCc3c(Cl)cccc3Cl)c2C)no1	-33	95	75	.
N#Cc1ccccc1NC(=O)COC(=O)Cc1ccc(Br)cc1	-16	137	91	.
CCNc1nc(N2CCOCC2)nc(N2CCC(Cc3ccccc3)CC2)n1	-15	95	90	95&101
Cc1cc(C(=O)OCn2nnc3ccccc3c2=O)c(C)o1	-29	79	92	.
CC1CN(CC(C)C(=O)NN)CC(C)O1 (configuration not stated)	6	105	101	.
SMILES	HCMV NEC inh	Sa growth 42C	Sa growth 42C second temp	GIV-Gai inh
CCN1CCN(c2nc3ccccn3c(=O)c2/C=C2\SC(=S)N(CC)C2=O)CC1	-61	87	87	289
CCn1cc(S(=O)(=O)N2CCC3(CC2)OCCO3)cn1	-6	88	92	93
NC(=O)C1(c2ccccc2)CCCN1C(=O)c1ccc(Br)cc1 (configuration not stated)	-10	90	93	98
COc1ccc(-n2c(NN)nc3sc4c(c3c2=O)CCC4)cc1	.	83	78	111
COc1ccc(-c2nc(C#N)c(NN3CCOCC3)o2)cc1	-11	100	95	.
CC1(C(=O)NC2CCCCC2)Cn2c(cc3ccccc32)C(=O)N1CCN1CCOCC1 (configuration not stated)	-3	.	.	99
CC(=O)NC(C1C(=O)CC(C)(C)CC1=O)(C(F)(F)F)C(F)(F)F	5	100	102	110
OCCNCc1ccc(-c2ccc(Cl)cc2)o1	-15	.	.	101
Cc1ccc(NC(=O)c2ccc3ncsc3c2)cc1	-26	98	82	97
